Screening data from PubChem.
Ba CapD inh – blocks the Bacillus anthracis CapD enzyme; purified CapD enzyme, fluorescence intensity read-out; active compounds read low; some hits fall short of the stated cut; z-score (test concentration not listed); 140,000 tested, 0.23% active; AID 492967;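 active = z-score under -4 in either of two replicates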;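 note: stock transfer was 100 nL into about 40 µL; score is relative to mean and spread of the plate; one replicate is shown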
AID504770 – E. coli YBA685 growth inhibition, screen for V. cholerae RctB inhibitors; AID 504770; 130,000 tested, 0.27% active; E. coli YBA685 rctB-dependent plasmid, OD600 growth, 3 h; active compounds read low; z-score (concentration not given with the values);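 active = z-score under -2 on both plates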;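 note: wells of about 30 µL received 100 nL stock; score is relative to mean and SD of the test wells; the first replicate is given; strong numbers were not always called active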
An asterisk follows results filed as active.

How did CC1CCCC(NC(=O)CSc2nc3ccccc3o2)C1C (stereo not given) do in these assays?
AID504770: 0

What do the screens show for `C=Cn1c(C(=O)O)ccc1-c1ccc(CC)cc1`?
Ba CapD inh: 1.06; AID504770: -0.7

How did O=C(N/N=C/c1ccc(Oc2ccccc2)cc1)c1ccc([N+](=O)[O-])o1 do in these assays?
Ba CapD inh: -1.9

What do the screens show for `O=C(CCCOc1ccc(Cl)cc1)NCC1CCCO1` (stereo not given)?
Ba CapD inh: -0.42; AID504770: 0.45

How did COc1cccc(CSCC(=O)NCc2ccccc2Cl)c1OC do in these assays?
Ba CapD inh: 0.395; AID504770: -0.15

What do the screens show for `Cc1c(CC(=O)O)c(=O)oc2cc3occ(-c4ccc(Cl)cc4)c3cc12`?
Ba CapD inh: 24.1; AID504770: 0.85

Results for COc1ccc(CCNC(=O)c2cc3ccccc3s2)cc1OC ?
Ba CapD inh: -0.755; AID504770: 0.85

Results for CCOc1cc(C2NC(C(=O)O)CS2)ccc1OCc1cccc(F)c1 (stereo not given) ?
Ba CapD inh: 0; AID504770: 0.35

How did COC(=O)C(N)c1c[nH]c2ccccc12 (stereo not given) do in these assays?
Ba CapD inh: -1.42; AID504770: 1.15

How did COc1ccccc1N1CCN(C(=O)C2CC(=O)N(c3ccccc3)C2)CC1 (stereo not given) do in these assays?
AID504770: -0.45

What do the screens show for `NC(=O)C1CCN(C(=O)c2ccc3c(=O)n(Cc4ccco4)c(SCc4ccccc4Cl)nc3c2)CC1`?
Ba CapD inh: 0.075

What do the screens show for `Cc1ccccc1NC(=O)c1ccc2ncsc2c1`?
Ba CapD inh: 0.085; AID504770: -0.1

How did COc1ccc2c(c1)CC/C(=C\c1ccsc1)C2=O do in these assays?
Ba CapD inh: -0.38; AID504770: -0.8

Results for Fc1ccccc1N1CCN(c2ncnc3c2cnn3-c2ccc(Cl)cc2)CC1 ?
Ba CapD inh: 0.15

What do the screens show for `COC(=O)C1CC(O)CN1S(=O)(=O)c1ccc(Cl)cc1` (stereo not given)?
AID504770: -0.25

How did CCCCCCCCCCCCN1CNC(=S)NC1 do in these assays?
Ba CapD inh: -0.47

What do the screens show for `Cc1cc(O)c(Cc2c(O)cc(C)[nH]c2=O)c(=O)[nH]1`?
AID504770: -1.6

How did COc1ccc(-c2nc(N3CCN(C)CC3)c3ccccc3n2)cc1OC do in these assays?
Ba CapD inh: 1.65

How did Cc1nc(/C=C/N(C)C)c(C#N)c(-c2c(Cl)cccc2Cl)c1C#N do in these assays?
Ba CapD inh: 11.1

How did O=C1C2C3c4ccccc4C(c4ccccc43)C2C(=O)N1c1ccccc1Cl (stereo not given) do in these assays?
Ba CapD inh: 0.425

How did C=CCSc1nc2ccccc2n1CC(=O)Nc1cccc(C#N)c1 do in these assays?
AID504770: 2.35

What do the screens show for `Cc1ccc(/C=C2/SC(=S)N(c3ccc(S(=O)(=O)Nc4nccs4)cc3)C2=O)cc1`?
Ba CapD inh: -1.8; AID504770: 0.1

What do the screens show for `COCCCn1c(-c2cccs2)csc1=Nc1ccc(S(=O)(=O)N2CCOCC2)cc1`?
AID504770: 0.45

Results for O=C1NC(=O)N(c2ccc(Cl)cc2)C(=O)/C1=C/c1ccc(Cl)cc1 ?
Ba CapD inh: -0.12; AID504770: 0.9

Results for O=C(COC(=O)c1ccc(F)cc1Cl)NCc1ccco1 ?
Ba CapD inh: -0.3; AID504770: 1.5

How did O=c1/c(=C/c2cc(Cl)ccc2OCc2ccccc2Cl)sc2nc3ccccc3n12 do in these assays?
Ba CapD inh: -0.13

Results for CC(=O)Nc1ccc(NC(=O)c2cccc(C(=O)OC(C)C)n2)cc1 ?
Ba CapD inh: 1.35; AID504770: -0.5

How did COc1ccc(OC)c(C2NC(C(=O)O)C3C(=O)N(c4cccc(C(=O)O)c4)C(=O)C23)c1 (stereo not given) do in these assays?
Ba CapD inh: 4.35; AID504770: 0

How did Cc1ccc(S(=O)(=O)N2c3cc(C)ccc3OCC2C(C)(C)C)cc1 (stereo not given) do in these assays?
Ba CapD inh: -0.34

Results for O=C(c1cccs1)c1cn(CC(=O)N2CCCCCC2)c2ccccc12 ?
Ba CapD inh: -0.135; AID504770: 2.1

Quoted at random: 6 compounds from above
How did O=c1/c(=C/c2cc(Cl)ccc2OCc2ccccc2Cl)sc2nc3ccccc3n12 do in these assays?
Ba CapD inh: -0.13

Results for O=C1NC(=O)N(c2ccc(Cl)cc2)C(=O)/C1=C/c1ccc(Cl)cc1 ?
Ba CapD inh: -0.12; AID504770: 0.9

Results for O=C(c1cccs1)c1cn(CC(=O)N2CCCCCC2)c2ccccc12 ?
Ba CapD inh: -0.135; AID504770: 2.1

How did Cc1nc(/C=C/N(C)C)c(C#N)c(-c2c(Cl)cccc2Cl)c1C#N do in these assays?
Ba CapD inh: 11.1

How did COc1ccc(-c2nc(N3CCN(C)CC3)c3ccccc3n2)cc1OC do in these assays?
Ba CapD inh: 1.65

How did Cc1ccc(S(=O)(=O)N2c3cc(C)ccc3OCC2C(C)(C)C)cc1 (stereo not given) do in these assays?
Ba CapD inh: -0.34

(list continues)
Results for CCOc1ccsc1C(=O)NNC(=O)OCC(Cc1ccccc1)N(Cc1ccccc1)Cc1ccccc1 (stereo not given) ?
Ba CapD inh: 0.345

How did O=C1c2ccccc2-c2nn(C(=O)c3ccncc3)c3cccc1c23 do in these assays?
Ba CapD inh: -0.5; AID504770: 2

What do the screens show for `COc1ccc(/C=C(\C#N)C(=O)NCc2ccco2)cc1C`?
AID504770: -0.75

Results for COC(=O)CSc1nc(C)c(C(=O)Nc2ccccc2)c(-c2ccc(OC)c(OC)c2)c1C#N ?
Ba CapD inh: 2.94

Results for O=C(Nc1ccc(Br)cc1F)c1cc(S(=O)(=O)NCc2ccc3c(c2)OCO3)ccc1F ?
Ba CapD inh: 2.2

What do the screens show for `CCCCOc1ccc2c(c1)/C(=C(\C(Cl)=C(Cl)Cl)[N+](=O)[O-])N2`?
Ba CapD inh: -0.375

What do the screens show for `Cc1ccc(-c2csc3ncn4nnnc4c23)cc1`?
Ba CapD inh: 2.81; AID504770: -0.55

How did COc1ccc(NC(=NC=[N+](C)C)SC)cc1 do in these assays?
Ba CapD inh: -0.34

What do the screens show for `Cc1cc(Cl)ccc1OCC(=O)N/N=C/c1cc(C)n(-c2cccc(C(F)(F)F)c2)c1C`?
Ba CapD inh: 0.27

Results for CC(=O)Nc1cc(=O)[nH]c(-c2ccccn2)n1 ?
Ba CapD inh: -0.51; AID504770: -1.25

How did Cc1ccc(NC(=O)c2cccc(OC(=S)NCc3ccccc3)c2)cc1 do in these assays?
Ba CapD inh: 4.54; AID504770: -0.2

How did CC(C)(C)c1ccc(-c2nc(NCc3ccco3)c3ccccc3n2)cc1 do in these assays?
Ba CapD inh: 0.625

What do the screens show for `CCN1CCCC1CNC(=O)c1c(C)nn(-c2ccc(F)cc2)c1-n1cccc1` (stereo not given)?
Ba CapD inh: 0.215; AID504770: 0.45

How did O=C(CC1CCCCCCCCCCC1)N1CCOCC1 do in these assays?
Ba CapD inh: -0.495; AID504770: 1.65

How did Cc1ccc(-c2nc3cc(NC(=O)COc4ccccc4)ccc3o2)cc1 do in these assays?
Ba CapD inh: 7.74; AID504770: 1.1

Results for CN(CC(C)(C)NS(=O)(=O)c1ccccc1)C1CCCCC1 ?
Ba CapD inh: -0.57; AID504770: -0.4

How did C(=NCc1ccccc1)c1cn(-c2ccccc2)nc1-c1cc2ccccc2o1 do in these assays?
AID504770: -1.05

How did CCn1cc(CCC(=O)NC2CCCC2)c2ccccc21 do in these assays?
Ba CapD inh: 0.83; AID504770: -0.8

What do the screens show for `O=C(Nc1nc(-c2ccccc2)cs1)c1cccs1`?
Ba CapD inh: 0.82; AID504770: -0.6

How did O=S(=O)(c1ccc(NC2CCC(O)CC2)nc1)N1CCCC1 (stereo not given) do in these assays?
AID504770: -0.75

How did CN1C(=O)S/C(=C\C=C\c2ccccc2)C1=O do in these assays?
Ba CapD inh: -0.365; AID504770: -0.9

How did Cc1ccsc1-c1nc(CSCC(=O)O)c(C)o1 do in these assays?
Ba CapD inh: 0.235; AID504770: -2.05

How did CN(C)CCNC(=O)c1cc2c(s1)-c1ccccc1S(=O)(=O)C2 do in these assays?
Ba CapD inh: -0.02; AID504770: -0.8

What do the screens show for `CN1C/C(=C/c2ccccn2)C(=O)/C(=C/c2ccccn2)C1`?
Ba CapD inh: -0.255; AID504770: -0.3

What do the screens show for `CN1CCC/C1=C/C=C1\SC(=S)NC1=O`?
Ba CapD inh: -1.46; AID504770: -0.45

What do the screens show for `COc1ccc(-c2csc3nc(-c4ccc(C)cc4)oc(=O)c23)cc1`?
Ba CapD inh: 0.08

What do the screens show for `COC(=O)c1cc([N+](=O)[O-])ccc1NC(C)=O`?
Ba CapD inh: -0.27

How did COc1cc(OC)nc(OC(Cc2ccc3ccccc3n2)c2ccc(C(F)(F)F)cc2)n1 (stereo not given) do in these assays?
Ba CapD inh: -0.685

What do the screens show for `COc1ccc(C(F)(F)F)cc1-n1ccc(-c2ccc(C)cc2)nc1=S`?
Ba CapD inh: -1.71; AID504770: 1.05

What do the screens show for `COC(=O)Cn1c(=O)c2c(nc3n2CCN3c2ccccc2)n(C)c1=O`?
Ba CapD inh: -0.145; AID504770: -1.1

Continued (4 carried over from the part before).
What do the screens show for `COC(=O)c1cc([N+](=O)[O-])ccc1NC(C)=O`?
Ba CapD inh: -0.27

How did COc1cc(OC)nc(OC(Cc2ccc3ccccc3n2)c2ccc(C(F)(F)F)cc2)n1 (stereo not given) do in these assays?
Ba CapD inh: -0.685

What do the screens show for `COc1ccc(C(F)(F)F)cc1-n1ccc(-c2ccc(C)cc2)nc1=S`?
Ba CapD inh: -1.71; AID504770: 1.05

What do the screens show for `COC(=O)Cn1c(=O)c2c(nc3n2CCN3c2ccccc2)n(C)c1=O`?
Ba CapD inh: -0.145; AID504770: -1.1

Results for CC(=O)Oc1ccc(C)cc1C(O)(C(F)(F)F)C(F)(F)F ?
Ba CapD inh: 0.095; AID504770: -0.45

Results for COc1cc(OC)c(NC(=O)c2cc3ccccc3cc2O)cc1Cl ?
Ba CapD inh: 0.02; AID504770: -0.15

How did Cn1nc(C(F)(F)F)cc1C(=O)O do in these assays?
Ba CapD inh: 0.54; AID504770: -0.7

What do the screens show for `Cc1ncn2cc(-c3ccc(Cl)cc3)[nH]c(=O)c12`?
Ba CapD inh: 0.11; AID504770: 0.85

How did COC(=O)c1ccc(CSc2ccccc2NC(=S)Nc2cccc(SC)c2)o1 do in these assays?
Ba CapD inh: -0.925

What do the screens show for `COC(=O)Oc1ccc2c3c(c(=O)oc2c1)CCCC3`?
Ba CapD inh: 9.86; AID504770: -0.05

Results for COc1ccc(N2C(=O)c3ccccc3NC2c2ccc(OC)c(CSc3nc4ccccc4s3)c2)cc1 (stereo not given) ?
Ba CapD inh: 11.6

Results for Cc1ccc(SCC2(O)CCN(S(=O)(=O)c3ccccc3)CC2)cc1 ?
Ba CapD inh: 0.195

Results for O=C(CN1C(=O)c2ccccc2C1=O)Oc1ccc(F)cc1 ?
Ba CapD inh: 0.37; AID504770: 0.25

Results for Cc1ccc(NC(=O)COC(=O)c2ccccc2S(C)=O)cc1C (stereo not given) ?
AID504770: -0.35

Results for Cc1c(NC(=O)CN2C(=O)c3cccc4cccc2c34)c(=O)n(-c2ccccc2)n1C ?
AID504770: -0.4

How did O=c1oc2ccccc2nc1/C=C(\O)c1cccs1 do in these assays?
Ba CapD inh: -0.03; AID504770: -0.6

Results for CCOc1ccc(S(=O)(=O)N2CCN(Cc3ccc4c(c3)OCO4)CC2)c2ccccc12 ?
Ba CapD inh: 3.27; AID504770: -0.65

How did COc1ccc(NC(=O)C2CCC(CNS(=O)(=O)c3cccc4nsnc34)CC2)c(OC)c1 (stereo not given) do in these assays?
Ba CapD inh: 0.215; AID504770: -0.5

Results for N#CC(C#N)=Cc1sc2ccccc2c1Cl ?
AID504770: 0.3

What do the screens show for `COc1ccc(/C=C/C(=O)N2CCCc3ccccc32)cc1OC`?
Ba CapD inh: -0.985; AID504770: -0.6

How did CCCN(CCC)C(=O)CC(c1ccccc1)c1cc(C)ccc1O (stereo not given) do in these assays?
Ba CapD inh: 0.09; AID504770: 0

Results for O=C(c1cnn2c1NC(c1ccc(Br)cc1)CC2C(F)(F)F)N1CCN(C(c2ccccc2)c2ccccc2)CC1 (stereo not given) ?
Ba CapD inh: 0.105

Results for CCCCc1nnc2sc(NC(=O)COc3ccc(C)c(C)c3)nn12 ?
Ba CapD inh: -1.1; AID504770: 0.95

How did COc1ccc(S(=O)(=O)N(CCc2ccccc2)CC(N)=O)cc1 do in these assays?
AID504770: -0.35

Results for O=C(O)CC(NCc1ccco1)C(=O)Nc1ccc(Cl)cc1 (stereo not given) ?
Ba CapD inh: 0.745; AID504770: 0.9

Results for Cc1nc2cc(S(=O)(=O)N3CCC(C(=O)NC4CCCCC4C)CC3)ccc2n1C1CCCC1 (stereo not given) ?
Ba CapD inh: -0.79; AID504770: 1.8

What do the screens show for `CSC(=S)N/N=C/c1ccccc1`?
AID504770: -1.35

How did CC(C)c1ccc(CN2CCC(N(C)S(=O)(=O)c3ccc(S(C)(=O)=O)cc3)C2)cc1 (stereo not given) do in these assays?
Ba CapD inh: -0.365

How did O=C(NC1=NCCS1)C12CC3CC(C1)CC(C(=O)NC1=NCCS1)(C3)C2 do in these assays?
Ba CapD inh: -0.295; AID504770: -1.45

What do the screens show for `CCCS(=O)(=O)N1CCN(Cc2ccco2)CC1`?
Ba CapD inh: -0.755; AID504770: 1.75

Results for Cc1nnc(NC(=O)COc2ccc(Cl)cc2)s1 ?
Ba CapD inh: inactive; AID504770: -0.4

How did Cc1ccc(-n2c(SCC(N)=O)nc(O)c(C)c2=O)cc1 do in these assays?
AID504770: 0.75

How did COc1ccc(-n2nnc3c(=O)n(Cc4ccc(C)cc4)cnc32)cc1 do in these assays?
Ba CapD inh: 0.335; AID504770: -1.1

Results for Cc1nc(NCc2ccccc2)ncc1C(=O)O ?
Ba CapD inh: 1.31; AID504770: 1.15

How did COc1ccc(NCC(O)Cn2nnnc2-c2ccccc2)cc1OC (stereo not given) do in these assays?
Ba CapD inh: 0.43; AID504770: -2.3

What do the screens show for `C=C(C)CN1CCN(c2cc(-c3ccccc3)c(C#N)c3nc4ccccc4n23)CC1`?
AID504770: 1.3
